PABP FP inh: PABP poly(A) RNA binding inhibitors, primary screen, biochemical, fluorescence polarization, uHTS | 290,000 tested, 1% active | inhibition, % at 35 µM | Polyadenylate-binding protein 1 (Homo sapiens), P11940;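 active = 50% or more with normal probe brightness, or confirmed in later tests; inconclusive = above 50% with abnormal brightness, or retests that disagree; inactive = below 50% or failed in later tests; about a fifth of its hits are not listed in these tables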;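 note: calls also rest on retests at 20 µM and on dose response follow-up; controls were probe without protein and protein plus probe with vehicle; some compounds called inactive have numbers as strong as hits; many hits fall short of the cut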
Target sequence (P11940 whole entry, looked up): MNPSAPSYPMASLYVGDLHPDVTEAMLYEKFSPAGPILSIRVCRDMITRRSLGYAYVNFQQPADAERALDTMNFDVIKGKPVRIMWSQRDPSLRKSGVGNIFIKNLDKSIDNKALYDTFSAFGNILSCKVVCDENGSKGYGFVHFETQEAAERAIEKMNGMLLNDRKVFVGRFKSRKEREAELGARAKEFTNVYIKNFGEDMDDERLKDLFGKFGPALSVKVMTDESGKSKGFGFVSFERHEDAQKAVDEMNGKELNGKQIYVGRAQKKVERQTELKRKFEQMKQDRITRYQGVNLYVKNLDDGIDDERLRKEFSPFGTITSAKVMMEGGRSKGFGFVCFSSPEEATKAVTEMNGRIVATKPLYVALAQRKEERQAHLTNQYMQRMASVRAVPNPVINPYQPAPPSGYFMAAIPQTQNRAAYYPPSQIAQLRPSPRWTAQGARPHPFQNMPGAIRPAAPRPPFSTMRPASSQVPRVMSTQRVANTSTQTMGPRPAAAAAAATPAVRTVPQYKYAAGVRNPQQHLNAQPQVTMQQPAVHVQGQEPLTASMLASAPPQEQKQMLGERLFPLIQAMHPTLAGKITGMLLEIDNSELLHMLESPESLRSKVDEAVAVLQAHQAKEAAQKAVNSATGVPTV
CSC inhib: cancer stem cell viability inhibitors, primary screen, luminescence; 300,000 tested, 1.1% active; cancer stem cell-like cells viability; inhibition, % at 7.5 µM;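 active = mean at 75% or more and at least half the replicates too; inconclusive = mean and replicates disagree; tested in HMLE shEcad cells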;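 note: 0% = median of negative and 100% = median of positive control wells; the first replicate is given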
eIF4H inh: human eIF4H binding inhibitors, primary screen, translation initiation inhibitor project, biochemical, uHTS, fluorescence polarization; eIF4H fluorescence polarization binding assay; inhibition, % at 35 µM; 290,000 tested, 0.94% active; AID 2012, 2009;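 active = 50% or more with normal probe brightness, or confirmed in later tests; inconclusive = above 50% with abnormal brightness, or retests that disagree; inactive = below 50% or failed in later tests; about a fifth of its hits are not listed in these tables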;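 note: calls also rest on retests at 20 µM and on dose response follow-up; 0% = protein and probe with vehicle and 100% = probe without protein; strong numbers were not always called active; many hits fall short of the cut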
Rce1 inh: yeast Rce1p protease inhibitors, primary screen, biochemical, fluorescence, cell-free homogeneous; yeast membranes, quenched prenylated peptide cleavage fluorescence; calls only; 290,000 tested, 0.27% active; AID 2563, 2010;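 active = fall in fluorescence gain of 50% or more versus controls, with final raw signal at or below 3038400; inconclusive = same 50% fall but final raw signal above 3038400; inactive = fall in fluorescence gain under 50%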;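 note: plate controls were neutral control wells for no effect and wells lacking membranes for full effect; tested at 10 µM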
Target sequence (Q03530 whole entry, looked up): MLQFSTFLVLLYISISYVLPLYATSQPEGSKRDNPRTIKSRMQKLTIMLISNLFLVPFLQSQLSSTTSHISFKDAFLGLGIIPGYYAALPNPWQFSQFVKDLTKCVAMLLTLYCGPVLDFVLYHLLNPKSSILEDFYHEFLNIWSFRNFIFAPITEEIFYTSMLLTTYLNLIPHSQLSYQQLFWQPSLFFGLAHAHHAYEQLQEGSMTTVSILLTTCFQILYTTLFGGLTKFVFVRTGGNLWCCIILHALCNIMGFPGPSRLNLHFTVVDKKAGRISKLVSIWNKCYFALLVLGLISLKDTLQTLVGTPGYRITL
MT1-MMP act inh: blockers of MT1-MMP proenzyme processing, primary screen, HT1080 RFP-PRO-GFP cells, GFP/RFP fluorescence; GFP/RFP ratio fluorescence, overnight; percent of plate control window, DMSO zero; Matrix metalloproteinase-14 (Homo sapiens), P50281; 360,000 tested, 0.061% active; GFP/RFP ratio change, % at 20 µM; AID 651647, 2012;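 active = GFP/RFP ratio change of at least 30% with cell ATP level not reduced by more than half and red fluorescence within 50% of control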; note: strong numbers were not always called active
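Test system: HT1080 cells expressing an RFP-PRO-GFP fluorescent reporter construct / Compound dosing: single-point 20 µM compound, 1% DMSO / Schedule: cells overnight before dosing, compound overnight, 37 °C, 5% CO2 / Evaluation: GFP/RFP fluorescence ratio / Control set: DMSO and RFP-L50D-GFP cell wells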
UUG fidelity: modulators of yeast start codon fidelity, primary screen, whole organism, S. cerevisiae, single point, plate reader; S. cerevisiae UUG-firefly luciferase reporter, luminescence/redox ratio; activity score, % at 18.7 µM; 350,000 tested, 0.13% active;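 active = replicate mean at a twofold rise or more, about +100% in these data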;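 note: firefly luciferase made from a UUG start codon reports start codon fidelity; reporter light over untreated wells divided by growth signal over untreated wells; some hits fall short of that in this replicate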
HIV Env fusion: inhibitors of HIV-1 Env-driven cell-cell fusion, primary screen, HeLa-JRFL effector, CEM21 target cells, luciferase; inhibition, % at 12.3 µM; 360,000 tested, 1.1% active; AID 651610, 2012;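 active = mean replicate inhibition score of at least 50 and every replicate individually at or above 50; inconclusive = only one of the two criteria met; inactive = mean below 50 and not all replicates reaching 50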;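 note: 0% = plate neutral controls and 100% = maraviroc near 300 nM; one replicate is shown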
MT1-MMP act inh RFP: recorded beside MT1-MMP act inh, whose call it bears; RFP signal change, %; measured here: RFP expression control read;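 0 = vehicle wells; hits needed this value within 50% of zero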
The depositor's hits bear a star; i = inactive; ? = inconclusive; / = not tested or not shown; + = active, no number; & = joins results of further samples. Rows were taken by chance. Share with any hit: about 3%.

Results follow in this order: PABP FP inh, CSC inhib, eIF4H inh, Rce1 inh, MT1-MMP act inh, MT1-MMP act inh RFP, UUG fidelity, HIV Env fusion
> COc1ccc(C(=O)O)cc1S(=O)(=O)NC(C)(C)C
  6, -1, -4, i, -8, -1, -21, -10
> COc1cccc(NC(=O)[C@@H]2CCCN2S(=O)(=O)c2cccc3cccnc23)c1
  /, -7, /, /, 3, 3, -12, -16
> COc1ccc(-c2c(-c3ccc(OCC(=O)NN)cc3O)n[nH]c2C(F)(F)F)cc1
  1, 50, -5, i, 1, 1, /, 14
> CCOc1ccc(CCNC(=O)CS(=O)(=O)Cc2nc(-c3cccc(OC)c3)oc2C)cc1
  0, -9, -11, i, -2, -13, -13, 6
> Cc1cc(=O)n(CC(=O)NCCN2CCOCC2)c2c1c(C)nn2-c1ccccc1
  1, -1, 5, i, 3, 0, -3, /
> N#CCC(N)=C(C#N)C#N
  -6, -9, ?, i, -6, 5, -19, /
> COc1ccc(CNC(=S)Nc2ccccc2C)cc1
  -6, -14, -4, i, 1, 1, -40, /
> COc1ccc(OC(=O)c2cc(S(=O)(=O)N3CCCC3)ccc2Cl)cc1
  -2, -2, -8, i, 9, 2, -13, /
> CCOCC(=O)Nc1c(C(=O)Nc2ccc3c(c2)OCO3)oc2ccccc12
  4, -9, 6, i, -3, -2, -12, -46
> Cn1c(=O)c2c(nc(NCC3CCCO3)n2Cc2cccc(Br)c2)n(C)c1=O (centres undefined)
  -9, -11, -2, i, -4, -4, -4, -41
> COc1ccc(N2COC3c4cccc5cccc(c45)C32)cc1 (centres undefined)
  17, 32, ?, /, -28, 13, -21, -31
> O=C(COC(=O)c1ccco1)NCc1ccc(Cl)cc1
  1, 5, -11, i, -2, -4, -12, -2
> Cc1ccc(-c2cc(-c3nnc(SCC(=O)NC(C)C(C)C)n3N)c3ccccc3n2)cc1 (centres undefined)
  2, /, 8, i, 3, -4, -6, /
> COc1ccc2c(c1)CCc1c(C(=O)N3CCCc4ccccc43)noc1-2
  -6, 5, -5, i, -3, -7, -8, 3
> O=C(CC1S/C(=N/N=C2CCCCCC2)NC1=O)Nc1ccccc1F (centres undefined)
  -2, /, -7, i, -2, 1, -17, 4
> C/C(=N\NC(=S)NCCc1ccccc1)c1ccc(C)cc1
  -20, 1, -4, i, -2, 5, -14, -79
> O=C(c1cccnc1)N1CCN(S(=O)(=O)c2cccs2)CC1
  1, -1, -9, i, 3, 3, -15, -8
> CC(OC(=O)c1ccco1)C(=O)Nc1ccc(Cl)cn1 (centres undefined)
  8, /, 7, i, 1, 3, -12, -9
> Cc1nc(CS(=O)c2ccc(Cl)cc2)cc(NCc2ccc(Cl)cc2Cl)n1 (centres undefined)
  -4, -8, -4, i, 1, -14, -9, /
> CC1(OC(=O)c2ccc(Cl)nc2)C(=O)C=C2C=C3CCCN3C=C2C1=O (centres undefined)
  62*, 6, 101*, /, 6, 2, -13, -7
> C/C(=N\n1cnnc1)c1ccc(C#N)cc1
  0, -14, 0, i, 0, 6, /, -22
> CCN1/C(=C\C=C(C(C)=O)C(C)=O)Sc2ccccc21
  6, -1, ?, i, -113, 1, /, -3
> Cc1ccc(Cc2cnc(NC(=O)CN3CCOCC3)s2)cc1Cl
  6, 0, -2, i, 6, -5, -15, 23
> Cc1cc(NC(=O)CSc2nc(C(C)C)nc3sc(C)c(C)c23)no1
  -1, -11, 1, i, 2, 2, -7, /
> Cc1cc(C)c(O)c(-c2cc(C(=O)Nc3cccnc3)[nH]n2)c1
  3, 47, -4, i, 5, -10, /, -46
> Cc1cccc(OCCSc2nc3ccccc3n2CC(=O)O)c1
  3, -7, 5, i, -1, 1, -10, -39
> Cc1nc(NCC2CCCO2)c2nnn(Cc3ccccc3Cl)c2n1 (centres undefined)
  3, -18, 4, i, 4, -1, 11, /
> Cc1ccc2c(C(=O)CN3CCN(C(=O)c4ccco4)CC3)c(C)[nH]c2c1
  4, -1, -21, i, 4, 5, -13, 2
> O=C(Nc1cccc(NC(=O)c2ccco2)c1)c1ccccc1
  2, 3, -2, i, -3, 0, -2, -11
> Brc1cccc(-c2nnc3sc(CNCc4ccco4)cn23)c1
  9, /, -3, i, 4, -5, -15, 3
> CCOc1cc(NC2CS(=O)(=O)CC2O)c(OCC)cc1NC(=O)c1ccccc1 (centres undefined)
  -10, -3, -3, i, -1, 0, -2, /
> CCOC(=O)Nc1cccc(OCC(=O)Nc2ccccc2OCC)c1
  2, -12, -8, i, -5, -11, -18, -46
> COc1ccccc1C(NC(=O)C1CCN(CCc2ccc(Br)cc2)CC1)c1ccccn1 (centres undefined)
  /, /, /, /, 2, 9, -25, 14
> COc1cc(C(=O)N/N=C/c2ccc(OC(=O)N3CCOCC3)cc2)cc(OC)c1OC
  -16, 6, 0, i, 7, 7, /, 30
> CC(C)(C)C(=O)NNc1nc(-c2ccccc2)c2cc(Br)ccc2n1
  1, 13, -6, i, 0, -3, /, -27
> O=S(=O)(NCC(c1ccco1)N1CCc2ccccc21)c1ccccc1 (centres undefined)
  /, 11, /, i, -5, -2, /, -4
> COc1ccccc1CCNC(=O)C(=O)NCC1OCCN1S(=O)(=O)c1ccccc1 (centres undefined)
  -12, -7, 1, i, 1, -1, 2, /
> CC(C)COc1cccc(C(=O)N(C)CC(=O)Nc2cccc3ccccc23)c1
  /, -6, /, /, 3, -2, -21, 4
> O=C(C1CCCN(Cc2ccc3c(c2)OCO3)C1)N1CCCC1 (centres undefined)
  -4, -18, 4, i, -2, 7, -19, /
> COc1ccc(CCn2nnnc2CN2CCN(C(=O)c3ccco3)CC2)cc1OC
  15, -6, -7, i, 10, 4, /, 4
> CCOC(=O)C1CCCN(S(=O)(=O)c2cc3[nH]c(=O)c(=O)[nH]c3cc2C)C1 (centres undefined)
  -5, -4, -8, +, 3, 6, -9, 20
> Nc1c(C(=O)NC2CCCC2)c2nc3ccccc3nc2n1/N=C/c1ccco1
  16, -2, 12, i, -5, 0, /, /
> CC(C)[C@H](NC(=O)c1c(F)cccc1F)C(=O)Nc1cccc(Br)c1
  -2, 5, 9, i, -4, -5, -5, 2
> NNC(=O)C(Cc1c[nH]c2ccccc12)NC(=O)c1ccccc1 (centres undefined)
  6, -21, 3, i, -4, -1, /, -4
> COc1ccc(C(CC(=O)Nc2nccs2)n2cccc2)cc1 (centres undefined)
  -11, 0, -2, i, 2, 2, -12, /
> CCC[C@@H]1CCCO[C@@](C(=O)NCc2ccccn2)(C(F)(F)F)C1
  /, -8, /, i, 4, -1, 5, 25
> COCCN(CC1CCCN(C2Cc3ccccc3C2)C1)C(=O)c1cccc(C)c1 (centres undefined)
  -3, -9, -9, i, -3, 2, 11, -10
> O=C(NC(O)C(=O)c1cccs1)c1cccnc1 (centres undefined)
  0, 6, -2, i, -7, 1, 0, /
> CCCNC(=O)C1(C)CCCN(Cc2ccc(-c3ccccc3)cc2)C1 (centres undefined)
  /, /, /, /, -2, -5, -4, -4
> Nc1nonc1C(=O)N/N=C/c1cc2c(cc1[N+](=O)[O-])OCO2
  6, /, 14, i, 2, 0, -24, 5
> Cc1c(Cl)cccc1NC(=S)NCCc1ccc(F)cc1
  -1, -6, -7, i, -1, -2, -31, -13
> Cc1n[nH]c(=O)c2c(NC(=O)CSc3nncs3)oc(C)c12
  /, 0, /, i, 3, 5, /, /
> CN(CCC#N)C(=O)CC1(Cc2ccccc2)CCOC(C)(C)C1 (centres undefined)
  4, -13, 6, i, 2, 1, -12, -6
> CC1CCN(C(=O)COC(=O)c2ccc(N3CCCC3=O)cc2)CC1
  /, -9, /, /, 0, 4, 4, /
> CCCc1noc2c1C(c1ccoc1)C(C#N)=C(N)N2 (centres undefined)
  14, /, 3, i, 6, 2, -13, /
> O=C(NCC1CCCO1)C(c1ccc(F)cc1)N(Cc1ccc(F)cc1)C(=O)Cn1nnc(-c2cccs2)n1 (centres undefined)
  -4, -17, -11, i, -8, -10, /, -106
> C[C@@H]1COC(=O)[C@@H](CC(=O)OC(C)(C)C)C/C=C\C[C@H](CC(=O)NCCO)C(=O)N1
  /, 3, /, /, 1, 6, -13, -12
> CC(=O)Nc1ccc2c(c1)N(C(=O)CN(C)C)c1ccccc1CC2
  7, 6, 12, i, 3, 5, 27, /
> CCC(C(=O)NC(C)(C)C)N(Cc1cccs1)C(=O)CNS(=O)(=O)c1ccccc1 (centres undefined)
  -9, -6, -7, i, 0, -4, 20, 36
> CC(=O)c1cccc(S(=O)(=O)N2CCN(c3nc4cc(C)cc(C)c4cc3C#N)CC2)c1
  -3, 3, -16, i, -3, -10, -14, ?

Entries from the list above that have a CF3 group (two):
Results follow in this order: PABP FP inh, CSC inhib, eIF4H inh, Rce1 inh, MT1-MMP act inh, MT1-MMP act inh RFP, UUG fidelity, HIV Env fusion
> COc1ccc(-c2c(-c3ccc(OCC(=O)NN)cc3O)n[nH]c2C(F)(F)F)cc1
  1, 50, -5, i, 1, 1, /, 14
> CCC[C@@H]1CCCO[C@@](C(=O)NCc2ccccn2)(C(F)(F)F)C1
  /, -8, /, i, 4, -1, 5, 25

Other structures follow.
Results follow in this order: PABP FP inh, CSC inhib, eIF4H inh, Rce1 inh, MT1-MMP act inh, MT1-MMP act inh RFP, UUG fidelity, HIV Env fusion
> CC1(C(=O)Nc2ccc3c(c2)OCCO3)CCN1Cc1ccccc1OC(F)F (centres undefined)
  /, /, /, /, 0, -4, -5, 18
> CC1(NC(=O)c2cc(Cl)nc3ccccc23)CCS(=O)(=O)C1 (centres undefined)
  /, -12, /, /, 0, 1, -9, 0
> CCOC(=O)C1=C(CN2CCN(C(=O)c3ccco3)CC2)NC(=O)NC1c1ccc(C)cc1 (centres undefined)
  -9, -6, -7, i, 4, 5, -9, 2
> S=c1[nH]c(-c2cccs2)cn1-c1ccccc1
  4, -12, -8, i, -1, -1, -7, -16
> O=C(N/N=C/c1c[nH]c2ccc(Br)cc12)c1ccccn1
  -13, -12, -5, i, 3, 1, /, 3
> Cc1ccc(C(=O)N/C(=C/c2ccc(C(C)C)cc2)C(=O)NCCCN2CCOCC2)cc1
  3, -15, -7, i, 2, 3, 16, -9
> CCCCNc1c(-c2cccc(SC3CCCCC3)c2)nc2ccc(Cl)cn12
  /, 4, /, i, 1&4, -5&-4, -21, -9&0
> CC1CCCN(C(=O)Cn2c(=O)oc3cc(S(=O)(=O)N4CCCCC4C)ccc32)C1 (centres undefined)
  /, /, /, /, -1, 3, -14, 0
> Cc1noc(C)c1COc1ccccc1C(=O)N1CCN(S(=O)(=O)c2ccccc2C(F)(F)F)CC1
  /, /, /, i, -3, 0, /, 13
> O=C(Cn1cnc2c(cnn2-c2ccccc2)c1=O)c1ccc(Cl)cc1
  5, -19, 5, i, 2, 1, -6, -15
> O=C(c1ccc(C(=O)N2CCCc3ccccc32)nc1)N1CCCc2ccccc21
  -7, -11, -6, i, 6, 0, -10, /
> COC(=O)C1C(=O)c2c([nH]c(C(=O)OC3CCCC3)c2C)CC1C (centres undefined)
  11, 1, 7, i, -2, -6, -18, /

Screens: PubChem, several laboratories
